NPYLR7 agonist = activates Aedes aegypti NPYLR7 receptor | HEK293T NPYLR7/Galpha15, GCaMP6s calcium fluorescence | activation, % at 10 µM | 0.15% of 270,000 active | AID 1259423; in the data active means activation above about 40%;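 further: 0% = vehicle and 100% = reference agonist at the receptor; some compounds past the cut are filed as inactive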
NPYLR7 agonist max-min = second read-out of NPYLR7 agonist, no call of its own (marks repeat the call); activation, %; measured here: Max-Min RFU normalised activation; some inactives read as strong as hits;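 span of the calcium signal over five minutes; 0% = vehicle and 100% = native peptide agonist; compound fluorescence can raise it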
An asterisk follows results filed as active; & = joins results of further samples.

compound	NPYLR7 agonist	NPYLR7 agonist max-min
CC(=O)N1CCc2cc(NC(=O)COc3cc(C)cc(C)c3)ccc21	14	16
CCc1ccccc1NC(=O)N(CCOC)Cc1nc(C(=O)N2CCN(c3ccc([N+](=O)[O-])cc3)CC2)cs1	1	-7
N#C/C(=C\c1ccccc1OCC(=O)NCc1ccccc1)c1nn(-c2ccccc2)c(N)c1C#N	-5	-8
O=C(CN(Cc1ccco1)C(=O)c1ccc(Cl)c(Cl)c1)Nc1cc(-c2ccccc2)nn1-c1ccc(F)cc1	-2	6
COc1cccc(C(=O)N2CCC3(CC2)OCc2cc(-c4ccc(C(=O)N(C)C)cc4)ccc2O3)c1	-2	-12
COc1ncccc1C(=O)N1CCCC(C(=O)Nc2cccc(-c3cccc(C)c3)c2)C1 (stereo not drawn)	6	3
CC1CCN(S(=O)(=O)N2CCC(C(=O)O)CC2)CC1	7	1
O=C(CN1CCN(Cc2ccco2)CC1)Nc1ccc(I)cc1	0	-1
CC1=CC[C@@H]2CN(C(=O)c3cnc(N4CCCCC4)nc3C)C[C@@H]2C1	5	5
Cc1ccc(C2(CN(C)Cc3nncn3C(C)C)CCNCC2)nc1	3	1
Cc1ccc(CN(C(=O)c2ccc(-n3cnnc3)cc2)C2CC2)s1	-1	-4
CC(C)(C)c1ccc(OCc2ccc(-c3nnco3)cc2)cc1	-2	-1
CC(C)C(=O)NC(=O)COC(=O)c1ccc(CO)cc1	0	-4
C=Cn1cc[n+](CC(=O)c2ccc(OC)cc2)c1	-13	-16
Nc1ccc(-c2nc3c(Cl)cc(N)cc3[nH]2)cc1	-3	-2
CC(C)c1ccc(N2C(=O)CSC2c2cccc(NC(=O)c3ccc([N+](=O)[O-])cc3)c2)cc1 (stereo not drawn)	8	12
CCOC(CC)C(=O)NCCC(=O)N1CCN(c2ncccn2)CC1 (stereo not drawn)	-2	-10
O=C(c1cncc(Br)c1)N1CCCc2cc(F)c(F)cc21	8	5
CCCN1N=C(C)C(C)n2c1nc1c2c(=O)n(CCC)c(=O)n1C (stereo not drawn)	5	2
CCOP(=O)(Cc1ccc(NC(=O)/C=C(C)/C=C/C2(O)C(C)=CC(=O)CC2(C)C)cc1)OCC (stereo not drawn)	-12	-23
O=C(NC1CCSc2c(F)cccc21)C1COc2ccccc2O1 (stereo not drawn)	4	2
O=C(c1cccc(Br)n1)N1CCOC(Cc2ccccc2)C1 (stereo not drawn)	0	-5
Cc1nc(N2CCN(C)CC2)ncc1-c1cc(=O)[nH]c(N2CCCCC2)n1	1	-2
COc1cc(/C=C2/SC(=S)N(CC(=O)O)C2=O)cc([N+](=O)[O-])c1O	0	-6
NC(=O)C1=C(NC(=O)C2(c3ccccc3)CCCC2)SC2CCCC12 (stereo not drawn)	-6	-15

One compound at a time, as listed above. Screens in order: NPYLR7 agonist	NPYLR7 agonist max-min
O=C(c1cncc(Br)c1)N1CCCc2cc(F)c(F)cc21 is listed as 8	5
CC1=CC[C@@H]2CN(C(=O)c3cnc(N4CCCCC4)nc3C)C[C@@H]2C1 is listed as 5	5
CC1CCN(S(=O)(=O)N2CCC(C(=O)O)CC2)CC1 is listed as 7	1
CC(C)c1ccc(N2C(=O)CSC2c2cccc(NC(=O)c3ccc([N+](=O)[O-])cc3)c2)cc1 (stereo not drawn) is listed as 8	12
NC(=O)C1=C(NC(=O)C2(c3ccccc3)CCCC2)SC2CCCC12 (stereo not drawn) is listed as -6	-15

(listing goes on)
compound	NPYLR7 agonist	NPYLR7 agonist max-min
C=C1C(=O)O[C@@H]2C3O[C@@]3(C)CC/C=C(\C)CC[C@@H]12 (stereo partly drawn)	-3	-8
COC(=O)NC(=O)CNC1CCCCC1C(C)(C)C (stereo not drawn)	1	-5
C/C(=C/C(=O)C(C#N)c1ccccn1)c1ccc(C(F)(F)F)cc1 (stereo not drawn)	29	25
CCCCNC(=O)Cn1nc(C)c(S(=O)(=O)N2CCc3ccccc32)c1C	1	2
O=C(OCC(Br)(COC(=O)c1ccccc1)[N+](=O)[O-])c1ccccc1	-3	-9
CCN(CC)C(=O)c1c(NC(=O)c2ccco2)sc2c1CCC(C)C2 (stereo not drawn)	3	2
CC(=O)Nc1ccc(-n2c(CCC(=O)NCCC3CCCN3C)ccc2-c2ccc(F)cc2)cc1 (stereo not drawn)	-2	-4
Cc1cccc(C)c1NC(=O)Nc1ccc(N2CCCC2)c(C(=O)NC(C)c2ccccc2)c1 (stereo not drawn)	-4	0
CN(Cc1ccccc1F)C(C(N)=O)c1ccccc1 (stereo not drawn)	7	1
CCCSc1nc2c(c(=O)[nH]1)C(c1cccc(F)c1)C(C(=O)OC)C(C)=N2 (stereo not drawn)	-3	-9
CC(=O)C(C(=O)Nc1ccc(F)cc1)C(c1ccc(Cl)cc1Cl)C(C#N)C#N (stereo not drawn)	5	4
CS(=O)(=O)NCC(=O)N1CCOC(CCCc2ccccc2)C1 (stereo not drawn)	9	4
Cc1ccccc1N=C1SCC(=O)N1c1ccccc1C	-7	-13
Cc1ccc(C)n1CCN1CCN(C(=O)c2ccc([N+](=O)[O-])cc2)CC1	0	-1
O=C(CN1C(=O)NC2NC(=O)NC21)NC1CCCCC1 (stereo not drawn)	4	2
CCOC(=O)CNc1ccccc1C(=O)N1CCN(C2CCCC2)CC1	2	26
CCC(c1ccc(C)cc1)N(CC)C(=O)Nc1ccc(=O)n(C)c1 (stereo not drawn)	-4	-3
Cc1cc(CNC(=O)C2=Cc3ccccc3OC2)c2[nH]c(C)c(C)c2c1	15	13
COc1ccc(-c2ccc(C(=O)NCCCOC(C)C)s2)c(OC)c1OC	2	2
O=C(Nc1ccc(N2CCc3ccccc3C2)c(C(=O)N2CCCCC2)c1)c1ccc2ccccc2c1	-6	-5
Cc1ccc(F)c(NC(=O)COc2cccc(N3CCCC3=O)c2)c1	1	2
Cn1ncc2c(N3CCOCC3)nc(N3CCN(c4cccc(Cl)c4)CC3)nc21	3	1
CN1CCN(C(CNS(=O)(=O)c2ccc(F)cc2F)c2cccn2C)CC1 (stereo not drawn)	0	-2
CC1(C)CC(=O)C(C(c2ccc(Br)cc2)C2C(=O)CC(C)(C)CC2=O)C(=O)C1	4	3
CCn1c(C2CCCNC2)nn(CCN2CCN(c3ccccc3)CC2)c1=O (stereo not drawn)	3	3
CC(C)/C=C/CN1CCC(Oc2ccccc2C(=O)N2CCCC2)CC1	4	4
CC(C)OCCCNC(=O)CC1C(=O)NCCN1CC1CCCCC1 (stereo not drawn)	0	-1
O=C(NN=Cc1cc(Cl)ccc1Cl)c1cnc2ccccn2c1=O	1	-1
CN(Cc1nc(Cc2cccc(C(F)(F)F)c2)no1)C1CC(C)(C)NC(C)(C)C1	5	1
CCC(C)n1nccc1NC(=O)C(C)N1CCN(C)CC1C (stereo not drawn)	0	-1
CN1CCCC1CCNC(=O)CCC(=O)NC1CCCC1 (stereo not drawn)	2	-1
CCCCCCCCCOC(=O)c1sc2nc(C)c(C)c(C)c2c1N	3	4
COc1ccc(NC(=O)c2ccc(Nc3nc(-c4ccccc4)c4cc(Cl)ccc4n3)cc2)cc1	-1	-8
COc1ccccc1CCN1CCCC(CN(C)C(=O)c2ccccn2)C1 (stereo not drawn)	10	10
CCC(C)Sc1ccc(NC(=O)N2CCC(c3n[nH]c(C)n3)CC2)c(C)c1 (stereo not drawn)	6	4
COc1cccc([C@@H](C)NC(=O)c2c(C)noc2-c2ccccc2Cl)c1	9	18
COc1ccccc1CN(C(=O)c1ccc2nc(C)[nH]c2c1)C1CC1	24	18
CSCC(=O)NC1CCCN(CCc2ccccc2)C1 (stereo not drawn)	13	10
Cc1ccccc1-n1nc(C(C)(C)C)cc1NC(=O)CN(Cc1ccco1)C(=O)c1ccc(C(C)(C)C)cc1	15	24
COc1nn(C)cc1C(=O)Nc1ccc(C)c(C)c1	3	11
O=C1/C(=C/c2ccc(Cl)cc2)C=C(c2ccccc2)N1c1ccc2ccccc2c1	-17	-15
COc1ccc(S(=O)(=O)N(CCN2CCOCC2)CC(=O)N(CCc2ccccc2)Cc2ccco2)cc1	10	11
O=C(Cc1cccs1)N1CC(=O)N2CCc3ccc(Cl)cc3C2C1 (stereo not drawn)	14	15
O=C(NCc1ccc(Oc2ccc(F)cc2)nc1)c1cnsn1	1	1
C=CCn1c(=O)c2c(nc3n(-c4ccc(S(N)(=O)=O)cc4)c(C)cn23)n(C)c1=O	-4	-6
Cc1nn(CN2CCN(c3ccc(F)cc3)CC2)c(=S)n1-c1ccccc1	-4	-4
COc1cc(OC)c(C(=O)Nc2c(C(=O)N3CCOCC3)sc3nc(C)cc(C)c23)cc1OC	-1	6
COc1ccc(C(=O)C(Sc2nnc(C)c(=O)[nH]2)c2ccc(OC)cc2)cc1 (stereo not drawn)	2	1
COc1ccc(CC(=O)N2CCN(c3nc(C)cc(Nc4ccc(C)cc4)n3)CC2)cc1	11	1
O=c1c2ccccc2oc2nc(C3CCCCC3)n(Cc3ccco3)c(=O)c12	6	5

Later entries
compound	NPYLR7 agonist	NPYLR7 agonist max-min
Brc1ccccc1CNCC1COc2ccccc2O1 (stereo not drawn)	7	5
COc1ccc(CNS(=O)(=O)CCn2ccc3ccccc3c2=O)cn1	4	1
CC(C)Oc1ccc(CN2CCC2(C)C(=O)NCc2cccs2)cc1 (stereo not drawn)	8	3
O=C(CCO)N1C[C@H](Oc2ccccn2)[C@H]2C[C@@H]1Cc1c2[nH]c2ccccc12	40	37
Cc1nc(Cc2nnc(SCc3cc(=O)n4c(C)cccc4n3)o2)cs1	4	5
O=C(COc1ccccc1)N1CCC(c2cn(Cc3ccc(C(F)(F)F)cc3)c3ccccc23)CC1	1	2
Cc1c([S+](C)C)c2ccccn2c1[S+](C)C	-2	-5
Cc1cc(Nc2ccccc2C)nc(-n2nc(C)cc2C)n1	-5	-3
O=C(Nc1ccccc1)c1cc(S(=O)(=O)N2CCOCC2)ccc1Cl	24	21
CC1SC(c2cccs2)N(CC(=O)O)C1=O (stereo not drawn)	3	2
CC1=C(C(=O)OCC(C)C)C(c2cccc(Cl)c2)C2=C(CC(c3ccccc3)CC2=O)N1 (stereo not drawn)	13	18
CNN=Cc1ccc(C#N)cc1	11	11
CC(C)C(=O)N1CCC(NC(=O)N(C)CC23CC4CC(CC(C4)C2)C3)CC1	3	2
CCOC1(OCC)C(C)C(C#N)(C#N)C1(OCC)OCC (stereo not drawn)	-3	-5
Cc1cccc(NC(=O)CSc2nc3c(c(=O)n2C)SC(C)C3)c1C (stereo not drawn)	-4	-5
CCOC(=O)c1cnc2c(C#N)cccc2c1NCc1ccccc1	4	3
Cc1cc(C(=O)NC2CCCCC2)nc2cc(-c3ccccc3)nn12	3	14
O=C1CCCc2[nH]c3ccc(F)cc3c21	-2	-5
COC(=O)C(C)Sc1nnc(-c2ccc(OC)c(OC)c2)n1C1CCCCC1 (stereo not drawn)	42	34
Cc1ccc(C)c(N2C(=O)CSC2c2cccc(N)c2)c1 (stereo not drawn)	-12	-7
COc1cccc(CNC(=O)N(C)Cc2ccc(C(C)C)cc2)c1	6	4
COc1ccc(C2c3[nH]c4ccccc4c3CCN2C(=O)c2snnc2C)c(F)c1 (stereo not drawn)	-11	-15
O=C(NC(C(=O)N1CCOCC1)C1CCN(C(=O)c2cccs2)CC1)c1ccc2c(c1)OCO2 (stereo not drawn)	14	13
Clc1ccccc1CN1C2=NCCCN2c2ccccc21	0	-1
CC1(C(=O)NS(=O)(=O)Cc2ccccc2C(F)(F)F)CCN1C(=O)C1CCCCC1 (stereo not drawn)	0	-4

Quoted at random: two records from the list, in no set order.
compound	NPYLR7 agonist	NPYLR7 agonist max-min
Cc1cc(C(=O)NC2CCCCC2)nc2cc(-c3ccccc3)nn12	3	14
O=C(CCO)N1C[C@H](Oc2ccccn2)[C@H]2C[C@@H]1Cc1c2[nH]c2ccccc12	40	37

Next structures follow.
compound	NPYLR7 agonist	NPYLR7 agonist max-min
COc1ccccc1Oc1cc(C)nc(SCc2cccc(C(F)(F)F)c2)n1	23	21
COC(=O)CN(C(=O)c1ccncc1F)c1cccc(F)c1	3	0
Cn1c(-c2ccc(Cl)cc2Cl)[n+](C)c2ccccc21	4	2
COc1ccc(OC)c(C2SCC(=O)N(CC(=O)NCc3ccco3)c3c2c(-c2ccccc2)nn3-c2cccc(C)c2C)c1 (stereo not drawn)	3	8
CC(C(=O)Nc1sc2c(c1C(N)=O)CCC2)N1CCCC1c1ccc2c(c1)OCCO2 (stereo not drawn)	-1	-3
CCC1(C)NC(=O)N(N=Cc2cccs2)C1=O (stereo not drawn)	2	6
CC(c1nncn1-c1cccnc1)n1cccn1 (stereo not drawn)	3&8	4&8
COC(=O)CN1C(=O)CNC12CCN(C(=O)C[C@H]1C[C@@H](C(C)=O)C1(C)C)CC2	1	15
CCN1CCN(C(c2ccccc2Cl)c2c(O)cc(C)n(CC)c2=O)CC1 (stereo not drawn)	14	6
CN(Cc1ccccc1)C1CCCN(Cc2cccc3cnccc23)C1 (stereo not drawn)	3	0
Cc1nc2sccn2c(=O)c1[N+](=O)[O-]	8	7
COCCn1c(=O)c2c(nc3n(-c4ccc(OC)c(Cl)c4)c(C)c(C)n23)n(C)c1=O	0	14

As entered above:
CC(c1nncn1-c1cccnc1)n1cccn1 (stereo not drawn) in NPYLR7 agonist = 3&8
CCN1CCN(C(c2ccccc2Cl)c2c(O)cc(C)n(CC)c2=O)CC1 (stereo not drawn) in NPYLR7 agonist = 14
COCCn1c(=O)c2c(nc3n(-c4ccc(OC)c(Cl)c4)c(C)c(C)n23)n(C)c1=O in NPYLR7 agonist = 0
CC(C(=O)Nc1sc2c(c1C(N)=O)CCC2)N1CCCC1c1ccc2c(c1)OCCO2 (stereo not drawn) in NPYLR7 agonist = -1
COC(=O)CN(C(=O)c1ccncc1F)c1cccc(F)c1 in NPYLR7 agonist = 3

This is a subset; count on the stated rates, not on these rows.
